# Screening data deposited in PubChem by several laboratories.
# Calb FLC: C. albicans growth modulation with fluconazole. 300,000 compounds, 0.57% hits. growth inhibition, % (no concentration beside the values). C. albicans CaCi-2 (fluconazole-resistant clinical isolate) + fluconazole, Alamar Blue growth, 48 h. AID 1979;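 active = most replicates above 75%; inconclusive = exactly half above 75%; inactive = most below 75%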;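 also: all wells also contain fluconazole at 8 µg/ml as a sub-toxic cotreatment; 0% = median of DMSO wells and 100% = median of geldanamycin control wells; wells of about 8 µL received 7.5 nL stock; the first replicate is given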
# T cruzi repl: T. cruzi replication inhibition. T. cruzi beta-gal in NIH3T3, luminescence, 90 h. inhibition, % (no concentration beside the values). 300,000 compounds, 1.4% hits. AID 1885;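 active = mean inhibition across valid replicates above about 55%, limit read from the data; inconclusive = mean below that limit but half or more replicates reach it; inactive = mean below it, under half of replicates reach it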;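 also: signal also drops with host cell toxicity which is not excluded here; 0% = plate median of DMSO wells and 100% = zero luminescence signal; higher percent means less beta-gal luminescence so fewer parasites; stock transfer was 50 nL into about 50 µL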
# RanGTP-Imp inh: inhibitors of RanGTP-importin-beta interaction, primary screen, biochemical, FRET, CFP-Ran, YFP-importin-beta, homogeneous | cell-free CFP-Ran/YFP-importin-beta FRET ratio | 300,000 compounds, 1.1% hits | inhibition, % (test concentration not listed);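 active = most replicates above 15%; inconclusive = exactly half above 15%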;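 also: 0% = DMSO wells and 100% = Ran loaded with GDP instead of GTP; wells of about 40 µL received 100 nL stock; the first replicate is given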
# Beta apoptosis: beta cell apoptosis inhibition | protection from apoptosis, % (no concentration beside the values) | 300,000 compounds, 0.8% hits | INS-1E cytokine-induced death, ATP luminescence, 48 h; percent of positive-control rescue, neutral wells zero;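 active = all replicates at 75% or more, or half of them and the mean; inconclusive = half reach 75% but not the mean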;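 also: 0% = cytokine-treated negative control wells and 100% = positive control rescue; higher means more ATP so stronger rescue from cytokine killing; wells of about 40 µL received 100 nL stock; the first replicate is given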
# Vif TR-FRET: inhibitors of Vif binding to APOBEC3G peptide, primary screen, biochemical, TR-FRET, GST-Vif 1-94, biotin-A3G peptide, dose response retest (AID 1117319). TR-FRET GST-Vif / biotin-A3G peptide binding; higher % means a stronger effect; test concentration not given here; strong numbers were not always called active. inhibition, %; hits with a dose series show IC50 in µM. 260,000 compounds, 0.57% hits;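 active = above the screen mean plus three standard deviations and confirmed in dose response; inconclusive = results disagree or hit not tested in dose response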;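 also: Vif residues 1-94 fused to GST binding biotinylated APOBEC3G peptide 110-148; 0% = full assay without inhibitor and 100% = GST in place of GST-Vif; retest series ran down from 100 µM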
# rRNA inh HTS: inhibits bacterial ribosomal RNA function over humanized ribosomes; E. coli WT GFP vs humanized-ribosome RFP mutants, fluorescence, 24 h; hits give low values; DMSO median 0, no signal -100; GFP signal change (wild-type ribosome), % (concentration not given with the values); 350,000 compounds, 1.6% hits;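 active = significant combined selectivity score with lowered wild-type GFP, culture density cut under 30%, mutant RFP and density less affected; inactive = any of these conditions unmet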; also: one replicate is shown; some compounds called inactive have numbers as strong as hits
# Bfl-1 A1 inh: inhibitors of the anti-apoptotic protein A1, read as caspase activation | MEF A1-2A-BIM cells, Caspase-Glo 3/7 luminescence, 3 h; percent of clofoctol response, vehicle zero | caspase activation, % (test concentration not listed) | 330,000 compounds, 0.066% hits;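 active = over half of replicate activation scores above 10%, or exactly half above 10 with the replicate mean above 10; inconclusive = replicate mean below 10 yet half the replicates above 10; inactive = over half of replicates below 10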;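 also: wells of about 30 µL received 50 nL stock; many hits fall short of the cut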
# AF4-AF9 inh: blocks AF4 peptide binding to human AF9; P42568; AlphaScreen, biotin-AF4 peptide binding to FLAG-AF9; inhibition, % at 10 µM; 350,000 compounds, 0.47% hits; AID 651704;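 active = every replicate reaching a set inhibition limit, whatever the replicate mean, cut at about 25% in these data; inconclusive = mean inhibition reaches that limit but some replicates miss it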;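 also: 0% = plate neutral control median and 100% = total signal loss; the record names both 10 and 1 µM as test concentration; the first replicate is given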
# Target sequence (P42568 whole entry, looked up): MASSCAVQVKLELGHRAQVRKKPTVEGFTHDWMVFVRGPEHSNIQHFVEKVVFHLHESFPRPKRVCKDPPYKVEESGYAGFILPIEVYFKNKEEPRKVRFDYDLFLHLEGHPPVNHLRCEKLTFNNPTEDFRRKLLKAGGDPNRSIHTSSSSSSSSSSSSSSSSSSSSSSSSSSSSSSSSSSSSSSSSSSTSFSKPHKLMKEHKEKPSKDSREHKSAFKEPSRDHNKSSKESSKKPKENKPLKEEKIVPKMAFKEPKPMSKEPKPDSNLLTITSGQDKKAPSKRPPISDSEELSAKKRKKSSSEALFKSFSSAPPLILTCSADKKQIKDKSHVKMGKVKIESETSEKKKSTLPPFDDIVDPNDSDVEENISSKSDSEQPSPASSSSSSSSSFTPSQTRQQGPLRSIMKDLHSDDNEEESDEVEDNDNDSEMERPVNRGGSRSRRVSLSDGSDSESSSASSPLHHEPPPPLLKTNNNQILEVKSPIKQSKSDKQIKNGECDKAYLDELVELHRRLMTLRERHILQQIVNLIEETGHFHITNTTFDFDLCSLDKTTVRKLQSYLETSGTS
# rRNA inh HTS OD600: further read-out of rRNA inh HTS, marked with its call; OD600 change, %; measured here: OD600 growth;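 optical density of the mix in the first replicate; 0 = DMSO median and -100 = no signal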
# rRNA inh HTS RFP: recorded beside rRNA inh HTS, whose call it bears; RFP signal change, %; measured here: RFP humanized mutant strains;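 first replicate; 0 = DMSO median and -100 = no signal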
# * = called active by the depositor; ? = inconclusive; · = not tested or not shown; & = joins results of further samples. Only part of the results is shown; the hit share may differ from the screen's.
SMILES,Calb FLC,T cruzi repl,RanGTP-Imp inh,Beta apoptosis,Vif TR-FRET,rRNA inh HTS,rRNA inh HTS OD600,rRNA inh HTS RFP,Bfl-1 A1 inh,AF4-AF9 inh
COc1ccc(CNC(=O)c2ccc[nH]2)cc1Cl,3,1,-2.1,-4,11%,-14,-11,-6.5,-0.2,0.5
COC(=O)c1ccccc1S(=O)(=O)N1CCC(C(=O)OC(C)C(=O)Nc2ccc(NC(C)=O)cc2)CC1 (stereo unspecified),5,-3,-6.0,-3,·,8,21,3.0,-0.4,-1.2
CCN(CC)C(=O)c1sc2nc(-c3ccccn3)[nH]c(=O)c2c1C,-13,-17,-1.0,15,·,-18,-14,-9.9,1.5,2.8
COc1cccc(NC2=Nc3cccc4cccc2c34)c1,-5,0,-4.9,-7,·,-34*,-13*,-8.1*,-1.4,?
NC(=O)c1ccc(-c2csnn2)cc1,2,-11,11,0,31%,5,1,-0.7,0.2,-1.4
Cc1cc(Cl)c(S(=O)(=O)N2CCN(c3ccccc3)CC2)cc1OCC(N)=O,0,-15,2.1,-1,?,·,·,·,0.2,·
CN(C1CCCCC1)S(=O)(=O)c1ccc(C(=O)Nc2sc3c(c2C(N)=O)CC(C)(C)NC3(C)C)cc1,31,20,2.2,3,26%,-4,16,3.9,-1.2,-2.5
O=C(c1cccc(S(=O)(=O)N2CCCC2)c1)N1CCN(c2ncccn2)CC1,-3,3,0.4,-6,9%,7,12,6.1,-0.1,-2.9
CN1CCN(C(=O)CNC(=O)Cc2ccc(Cl)cc2)CC1,3,-6,-0.4,-4,8%,10,10,-1.0,0.8,-2.3
O=C(CN1CCCC1)Nc1ccccc1Cl,-3,-4,0.2,-11,-1%,·,·,·,-0.6,·
CC(O)CNc1cnccn1 (stereo unspecified),18,-29,?,1,5%,·,·,·,-0.1,·
CCC(Sc1nc2ncccc2[nH]1)C(=O)N1CCOCC1 (stereo unspecified),-3,-9,-1.6,-2,·,2,16,-2.9,0.7,4.5
O=C(c1ccccc1S(=O)(=O)NCc1ccccc1)N1CCCC1,0,-1,-3.2,·,74%,-5,0,1.5,2.8,-3.7
Cc1c(C(=O)N2CCc3ccccc3C2)oc2ccc(S(=O)(=O)N3CC(C)CC(C)C3)cc12 (stereo unspecified),18,26,-2.2,22,·,·,·,·,-0.1,0.7
CCOCCCN(C)C1CCN(C(=O)c2oc3ccccc3c2NC(=O)COc2cccc(C)c2)CC1,1,16,-1.9,-10,·,11,26,7.5,-1.2,11
O=C(CCCCl)NC(=S)Nc1ccc(N2CCOCC2)cc1,-4,-5,?,1,8%,3,9,0.3,0.6,-0.2
Cc1c(C(=O)N2CCN(c3ccc([N+](=O)[O-])cc3)CC2)oc2ccccc12,·,·,·,11,-2%,1,14,3.0,-0.8,0.5
CCS(=O)(=O)c1ccc2c(c1)N(S(=O)(=O)c1ccc(C)cc1)CC(C(=O)O)O2 (stereo unspecified),-1,-2,-0.8,-4,5%,17,10,-0.2,0.6,-2.6
CCCCn1c(=S)[nH]c2ccccc2c1=O,6,-27,1.8,-3,·,·,·,·,-1.6,·
COCC(=O)Nc1ccc([N+](=O)[O-])cc1OC,-2,-2,-1.0,·,6%,·,·,·,-0.2,-3.0
O=C(NCCO)c1cc([N+](=O)[O-])cc2c1C=Cc1ccccc1O2,-3,54,2.7,-6,0%,-18,-4,-3.5,-1.1,1.5
COc1ccc2c(CC(=O)N3CCc4ccccc43)coc2c1,17,10,2.8,7,-2%,·,·,·,-12,·
COc1ccc(S(=O)(=O)NC(N)=NCCc2ccc(OC)c(OC)c2)cc1,-4,4,-2.1,-11,-12%,4,0,-1.1,0.3,0.1
C=CCNC(=O)c1c(CSc2ccc(F)cc2)noc1C(=O)NCCC,6,-12,0.4,4,·,5,-8,-6.1,?,-2.4
COc1ccc(/C=C2\SC(=Nc3ccccc3)NC2=O)cc1,2,9,5.5,-1,·,·,·,·,-0.2,·
CCN(CC(=O)Nc1ccc(NC(C)=O)cc1)CC(=O)Nc1ccc(F)c(Cl)c1,0,-13,-4.2,2,-4%,-7,8,19,-0.3,1.4
Cc1[nH]c(C)c(S(=O)(=O)N2CCc3ccccc32)c1C(=O)N1CCCCC1,-1,-2,-2.2,-1,·,1,-4,1.9,-0.1,1.2
COc1cccc(C(=O)NCc2n[nH]c(=S)n2-c2cccc(C)c2)c1,-19,-15,2.6,1,0%,3,3,1.3,0.3,-10
O=C(CN1C(=O)C(=O)N(Cc2ccccc2)C1=O)Nc1ccc(F)c(Cl)c1,-5,-3,-1.4,3,-5%,0,-15,-1.2,0.4,-2.8
CCOC(=O)C1CN(S(=O)(=O)c2ccc(OC)cc2)c2cc(CC(=O)OC)ccc2O1 (stereo unspecified),-8,-7,3.2,4,3%,·,·,·,0.5,·
O=C(NCc1ccccc1)/C(=C/c1ccco1)NC(=O)c1ccco1,-15,-4,-6.2,-4,?,14,8,5.8,-1.0,-0.7
O=C1CC(c2ccc(Cl)cc2)n2nc(N3C(=O)c4ccccc4C3=O)nc2N1 (stereo unspecified),-14,-7,-0.8,-6,15%,·,·,·,-0.2,·
S=C(Nc1ccc(Cl)cc1)c1nc2ccccc2[nH]1,96*,47,-1.1,43,·,·,·,·,-6.1,·
O=C(c1cc(Br)c[nH]1)N1CCCCC1,-9,-11,2.4,·,-3%,-3,0,0.8,0.8,-0.6
COC(=O)[C@]1(C)N[C@H](c2ccc(-c3ccc(OC)cc3)cc2)[C@@H]2C(=O)N(C)C(=O)[C@@H]21,·,·,·,-1,·,10,-1,0.8,0.4,3.1
Cc1c(F)cccc1NC(=O)CCC(=O)O,-4,0,0.7,-10,?,·,·,·,?,·
Cc1sc(NC(=O)C2CSC3(C)CCC(=O)N23)nc1-c1ccccc1 (stereo unspecified),3,12,-3.6,1,-16%,1,-6,9.7,1.2,-5.5
Cc1ccccc1-c1cc(-c2ccccc2O)n[nH]1,-9,-9,0.0,3,2%,·,·,·,0.0,·
CC(C)(C)C(=O)Nc1nnc(SCC(=O)NC2CCCCC2)s1,4,-5,0.6,-1,·,0,1,-0.9,0.8,-3.0
Cc1cc(C)n(CC(=O)NNC(=O)COc2ccc(Cl)cc2Cl)n1,·,·,·,-5,-7%,-1,-4,1.6,0.3,-0.5
O=C(NC12CC3CC(CC(C3)C1)C2)c1ccco1,-34,-1,-1.1,0,·,-15,-18,-9.2,0.7,-2.5
Cc1nc2ccccc2nc(C)c1=NOCc1cccc(F)c1,0,10,6.4,-8,-2%,-6,14,-1.4,0.4,-2.1
O=C(COc1ccccc1)N1c2ccccc2Sc2ccccc21,-30,38,0.1,1,-6%,-34*,-24*,1.1*,-0.1,-0.6
CCN1C(=O)C(O)(CC(=O)c2ccccn2)c2ccccc21 (stereo unspecified),-42,-20,-2.3,-4,?,·,·,·,-0.6,·
Cc1cc(C)nc(N(C#N)Cc2cccc([N+](=O)[O-])c2)n1,-4,-12,3.1,-11,-7%,·,·,·,-0.4,·
O=C(c1ccccc1SCc1ccc(F)cc1)N1CCOCC1,7,-33,-0.2,-5,·,6,-1,1.7,-0.8,-0.8
COc1cccc(C(c2sc3nc(C)nn3c2O)N2CCC3(CC2)OCCO3)c1 (stereo unspecified),-18,-15,0.4,·,·,12,3,-2.0,-0.4,1.6
COc1ccc(CNc2ncc(-c3ccc(F)cc3)n2C)c2ccccc12,-14,7,-2.1,-2,-5%,-8,-19,2.5,0.4,9.5
O=C(NNC(=S)NC1CCCCC1)c1ccccc1Br,58,-8,2.3,1,·,-2,5,-1.4,0.4,0.4
COc1cccc(N2C(=O)C3CC=C(Cl)CC3C2=O)c1 (stereo unspecified),5,-4,-1.1,0,3%,·,·,·,-0.4,·
# Next structures
SMILES,Calb FLC,T cruzi repl,RanGTP-Imp inh,Beta apoptosis,Vif TR-FRET,rRNA inh HTS,rRNA inh HTS OD600,rRNA inh HTS RFP,Bfl-1 A1 inh,AF4-AF9 inh
COc1ccc(/C=C2\SC(=O)N(CC(=O)Nc3ccc(F)cc3)C2=O)cc1O,-12,-37,4.2,-7,·,8,3,5.1,0.8,3.3
O=C(Cc1c(O)c2ccccc2[nH]c1=O)NCc1ccc(F)cc1,-5,0,5.7,-7,0%,·,·,·,0.4,·
O=C(Nc1ccc(Br)c(C(F)(F)F)c1)c1ccccc1,-6,4,3.0,11,·,-26,-54,1.1,-0.6,-8.6
O=C1C=CC2C(c3ccc4c(c3)OCO4)CC1N2Cc1ccccc1 (stereo unspecified),7,2,-6.5,·,15%,·,·,·,-0.2,·
Cc1cccc(C)c1NC(=O)C(NC(=O)CN1C(=O)c2ccccc2C1=O)c1ccccc1 (stereo unspecified),-2,1,0.6,-10,·,·,·,·,0.0,·
CN(CC(=O)Nc1cc(S(=O)(=O)N2CCCC2)ccc1Cl)Cc1ccc2c(c1)OCO2,·,·,·,18,·,-14,-19,22,-0.9,1.8
CCOc1ccc2[nH]c(O)c(NC(C)=O)c2c1,-10,-8,5.2,-1,?,·,·,·,0.3,·
CN(C)CCCCCCCCCCC(=O)/C=N/O,-22,47,-4.1,-3,·,1,3,-5.6,-0.2,0.7
O=C(Nc1ccccc1)c1ccc(S(=O)(=O)N2CCC(C(=O)O)CC2)cc1,-1,-6,2.0,·,·,4,18,-0.3,-0.4,-1.5
COc1ccc(N(CC(=O)Nc2cc(Cl)ccc2OC)C2=NC3CS(=O)(=O)CC3S2)cc1 (stereo unspecified),-5,-3,-5.5,-43,·,4,9,-0.9,-0.4,12
CCCCn1c(SCC(=O)Nc2cc(NC(=O)c3ccco3)ccc2C)nc2ccccc2c1=O,23,40,6.4,15,-9%&-1%,·,·,·,1.3,·
Cc1ccccc1OCC(=O)Nc1nc(C)c(C(=O)N(C)C)s1,-9,-14,-1.8,0,7%,·,·,·,0.3,·
O=C(/C=C/c1ccccc1)Nc1ncn[nH]1,-10,-48,-0.2,-28,6%,7,-2,-11,-0.3,4.9
O=C(N[C@H](Cc1cc(=O)[nH]c2ccccc12)C(=O)O)c1ccc(Cl)cc1,1,-2,-0.6,0,-1%,18,17,2.1,-1.7,-1.5
CCS(CC)=NS(=O)(=O)c1ccc(NC(C)=O)cc1,·,-26,3.3,-1,-2%,·,·,·,-0.3,·
O=C(CN1C(=O)C2C3C=CC(C3)C2C1=O)Nc1ccc(S(=O)(=O)N2CCCCC2)cc1 (stereo unspecified),-14,-11,-2.7,-4,3%,·,·,·,1.4,·
Cc1nn(C)c(C)c1NC(=O)c1cc2nc(-c3ccco3)cc(C(F)(F)F)n2n1,18,-8,1.3,·,9%,6,0,-0.3,0.3,-1.7
O=C(c1ccccc1)N1CCOC12CCN(c1ncc(C(F)(F)F)cc1Cl)CC2,-14,39,?,8,4%,·,·,·,1.7,·
